# SARS PLpro yeast: inhibitors of SARS-CoV papain-like protease in yeast. S. cerevisiae expressing SARS-CoV PLpro, growth rescue; control for the full effect not named in the record. Potency, µM (titrated, usually from 32.9 µM), for the others: top-dose activity, positive = growth rescue. hit rate 0.19% among 330,000. AID 485353; active means well fitted rising curve with a large enough effect; inconclusive means small, poorly fitted or top-dose-only effect; inactive means no such curve, though single readings can be large or run the other way; further: 0% is about no effect; nearly all actives have a fitted effect of over 55% in size; growth read by luminescence after 48 h
# StopGo reporter: FMDV 2A StopGo reporter, luciferase signal; human cells with a luciferase reporter of 2A StopGo recoding; control for the full effect not named in the record; Potency, µM (top dose mostly 57.9 µM), inactives show top-dose signal change, negative = less light; hit rate 1.2% among 410,000; AID 1159524; active = well fitted falling curve with a large enough effect; inconclusive = small, poorly fitted or top-dose-only effect; inactive = no such curve, though single readings can be large or run the other way; tested in HEK293T cells; further: on the % scale 0 is the no-effect control and ±100 the full control effect; nearly all actives have a fitted effect of over 45% in size; luciferase light after 4 h
# RE007 growth inh: less growth of the S. pombe RE007 Vpr strain. S. pombe RE007 Vpr strain, BacTiter-Glo ATP luminescence, 24 h; control for the full effect not named in the record. Potency, µM (series often up to 92.2 µM), inactives show at the highest dose activity change, negative = less growth. hit rate 0.21% among 360,000. AID 651644; active = well fitted falling curve with a large enough effect; inconclusive = small, poorly fitted or top-dose-only effect; inactive = no such curve, though single readings can be large or run the other way;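 further: on the % scale 0 is the no-effect control and ±100 the full control effect; nearly all actives have a fitted effect of over 50% in size; the assay follows cell death caused by Vpr and the record does not say whether a fall means rescue or toxicity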
#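 Fission yeast strain RE007, carrying one chromosomally integrated HIV-1 vpr copy, was seeded at OD 0.01 in PMG+AL medium with 23 nL pinned compound. After 24 h at 30 °C and 99% humidity, viability was read by BacTiter-Glo luminescence.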
# * hit, by the source's call; ? = inconclusive; [ ] = another dose, or the depositor's remark. Potency means the concentration at half of the fitted maximal effect.
Molecule | SARS PLpro yeast | StopGo reporter | RE007 growth inh
CC[C@@]1(c2ccccc2OC)ON(c2ccccc2C(F)(F)F)C1=O | -1% | 32µM* | -28%
C[C@@H]1COC(=O)[C@@H](CC(=O)OC(C)(C)C)C/C=C\C[C@@H](CC(=O)N(CCO)Cc2ccccc2)C(=O)N1 | 1% | -20% | -3%
Nc1nc(N)nc(-c2ccc(Cl)c(Cl)c2)n1 | -2% | 25% | 5%
CC(OC(=O)c1cnc(Cl)c(Cl)c1)C(=O)NCc1ccccc1 (stereo not drawn) | -6%[6.58 µM] | -30% | 3%
COC(=O)[C@@]12CCCN1[C@H](c1ccc(-c3cccc(Cl)c3)c(OC)c1)[C@H]1C(=O)N(C)C(=O)[C@H]12 | -11% | ? | -5%
O=C(Cn1c(=O)cnc2ccccc21)NNC(=O)c1ccc(Cl)cc1 | 16% | -22% | 7%
CS(=O)(=O)c1ccc(C(=O)OCC(=O)Nc2cccnc2Cl)cc1[N+](=O)[O-] | 10% | ? | -3%
Cc1ccc(S(=O)(=O)CCC(=O)OCc2nnc(-c3ccccc3Br)o2)cc1 | 1% | 3% | 11%
CCN(CC)S(=O)(=O)c1ccc(N2CCOCC2)c(NC(=O)c2[nH]c(C)c(C(C)=O)c2C)c1 | 2% | -9% | 0%
COc1ccc(NC(=O)CN(C)C(=O)COc2ccccc2Cc2ccccc2)cc1 | -5% | 0% | 8%
COc1cc(S(=O)(=O)Nc2ccc(Br)cc2)ccc1N | -2% | 55%[activator] | 1%
CSCCC(NC(=O)c1ccccc1)C(=O)NCCCn1nc(C)cc1C (stereo not drawn) | -2% | -4% | 1%
O=C1C=C(c2cccc3c2Oc2ccccc2S3)C[C@@H](c2ccc(Cl)cc2)C1 | 6% | -18% | 4%
Cc1c(C2(O)CCCCC2)[nH]c2ccc(C#N)cc12 | -2% | -14% | -1%
CC(=O)c1cc2c(cc1NC(=O)CN(C)S(=O)(=O)c1cccs1)OCO2 | 4% | -6% | -12%

# Reprinted at random: 3 records from the list.
Molecule | SARS PLpro yeast | StopGo reporter | RE007 growth inh
Nc1nc(N)nc(-c2ccc(Cl)c(Cl)c2)n1 | -2% | 25% | 5%
CC[C@@]1(c2ccccc2OC)ON(c2ccccc2C(F)(F)F)C1=O | -1% | 32µM* | -28%
CS(=O)(=O)c1ccc(C(=O)OCC(=O)Nc2cccnc2Cl)cc1[N+](=O)[O-] | 10% | ? | -3%

# Following part.
Molecule | SARS PLpro yeast | StopGo reporter | RE007 growth inh
CC(C)NC(=O)CCn1c(=S)oc2ccccc21 | -1% | -9% | -16%
CC(C)N(C(=O)[C@H]1C[C@H](CC(=O)NCc2ccco2)C(=O)N2CCc3c([nH]c4cc(CCC(=O)N(C)C)ccc34)[C@]12C)C(C)C | 5% | -10% | 2%
CCCCN(C(=O)c1cccc(-n2cnnn2)c1)c1c(N)n(CC(C)C)c(=O)[nH]c1=O | 2% | 0% | 1%
Cc1ccc(CNC(=O)c2ccc(N3CCC4(CC3)CC(c3cccc(Br)c3)=NO4)c(NC(=O)c3ccc(Cl)c([N+](=O)[O-])c3)c2)cc1 | 0% | -9% | 10%
COc1ccc(/C=C(\C#N)C(=O)OCC(=O)NC2CC2)cc1 | 5% | 3% | 14%
CC(=O)c1c(N2CCN(Cc3ccccc3)CC2)nc(=S)n(-c2ccccc2)c1C | -2% | -21% | -4%
CCN(CC)C(=O)Cn1c(=O)n(CCCC(=O)NCc2ccccc2)c(=O)c2sccc21 | 0% | 9% | 21%
C=CC[C@H](CC(=O)N[C@H](CO)Cc1ccccc1)C(=O)N[C@@H](COC(=O)[C@@H](CC=C)CC(=O)OC(C)(C)C)Cc1c[nH]c2ccccc12 | 4% | ? | 5%
O=C(CSc1nc2[nH]c(=O)cc(O)c2s1)Nc1ccc(Cl)c(C(F)(F)F)c1 | -3% | -8% | -5%
COC(=O)C1=C(c2ccc(Cl)c(C(F)(F)F)c2)C[C@@H]2CC[C@H]1N2C(=O)NC1CCCCC1 | -1% | ? | 6%
c1ccc(CSc2nc3ncccn3n2)cc1 | 6% | 60%[activator] | 1%
O=C(CCN1C(=O)NC2(CCCC2)C1=O)Nc1cccc(S(=O)(=O)N2CCOCC2)c1 | 5% | -3% | -7%
COC(=O)c1ccc(CNC(=O)Cn2cnc(C(=O)Nc3ccc(C)c(C)c3)n2)cc1 | -5% | 16% | 7%
COc1cc(-c2noc(C)c2C(=O)NCCCN2CCOCC2)cc(OC)c1OC | -29% | -4% | 0%
CN(C(=O)CSc1nnc(-c2ccco2)n1Cc1ccccc1)C1CCS(=O)(=O)C1 (stereo not drawn) | -5% | 0% | 8%
Nc1c(N(CCCO)C(=O)C2CCCC2)c(=O)[nH]c(=O)n1Cc1ccccc1 | 7% | -1% | 3%
Cc1nc(-c2ccc(NS(=O)(=O)c3ccccc3)cc2)cs1 | -1% | 19% | -7%
CCn1c(CCC(N)=O)nnc1SCC(=O)Nc1cccc(S(=O)(=O)N2CCCC2)c1 | -15% | -9% | 0%
COc1cc2c3c(c1OC)Oc1ccc(cc1)C[C@H]1c4c(cc(OC)c(OC)c4Oc4ccc(cc4)C[C@@H]3N(C)CC2)CCN1C | 10% | ? | 2%
COCCCNC(=O)Cn1cnc2c(OCc3ccccc3)ncnc21 | 9% | -10% | -1%
CC(=O)c1ccc(N2CCN(C(=O)C3CCN(S(=O)(=O)c4ccc(F)cc4)CC3)CC2)cc1 | 4% | -12% | 5%
CC1(c2ccccc2Cl)NC(=O)N(CC(=O)Nc2ccc(N3CCOCC3)cc2)C1=O (stereo not drawn) | 5% | -4% | -6%
CC(NC(=O)c1ccc(S(=O)(=O)Nc2ccccc2)cc1)c1ccc(S(N)(=O)=O)cc1 (stereo not drawn) | -2% | -3% | -5%
Cc1ccc(C(=O)CN(CCC(=O)O)C(=O)c2ccncc2)cc1 | -20% | 31%[activator] | 5%
CCNCC(=O)Nc1ccc(N2CCOCC2)cc1 | -1% | -15% | -7%
CC(C)N=C(NS(=O)(=O)NC(=O)c1ccccc1)c1ccccc1 | 2% | 24% | 2%
O=C(Cn1c2[n+](c3ccc(C(F)(F)F)cc31)CCCCC2)c1cccc([N+](=O)[O-])c1 | -3% | 1% | 0%
CCN1C(=O)[C@H]2[C@@H](c3ccc(-c4ccc(C(C)=O)cc4)c(OC)c3)N3CCCC[C@@]3(C(=O)OC)[C@H]2C1=O | -27% | -20% | -13%
CCOC(=O)C1CCN(C(=O)c2cccc(NS(=O)(=O)c3ccc(Br)cc3)c2)CC1 | 1% | -9% | 3%
CC(C)(C)C(=O)/C=C1\SCC(=O)N1CC(=O)N1CCN(c2ccccc2)CC1 | -5% | -27% | 3%
CC(=O)Nc1ccc(SC[C@H](C)CN2CC[C@H](O)CCC2=O)cc1 | 4% | 2% | 8%
C#CCOCCOCCOCCNc1nc(N2CCN(C(=O)CCCCCCCCCCNC(=O)[C@@H](CCSC)n3cc(CCO)nn3)CC2)nc(N2CCN(C(=O)CCCCCCCCCCNC(=O)[C@H]([C@@H](C)CC)n3cc(CCCCN=C(N)N)nn3)CC2)n1 | 6% | ? | 10%
O=C(CCNS(=O)(=O)c1ccc(Br)cc1)NCc1cccs1 | 1% | 31%[activator] | 2%
CCCn1c(NC(=O)C23CC4CC(CC(O)(C4)C2)C3)nc2ccccc21 | 0% | -23% | 7%
CCC(C)NC(=O)COC(=O)c1ccc(Cl)cc1O (stereo not drawn) | 0% | -1% | 17%
CN(CC(=O)Nc1ccc(Cl)c(C(F)(F)F)c1)C(=O)CCCc1nc2ccccc2c(=O)[nH]1 | -1%[6.58 µM] | ? | -6%
Cc1ccc(C)c(NC(=O)CCN2C(=O)C3CC=CCC3C2=O)c1 (stereo not drawn) | 6% | 0% | -21%
O=C(COC(=O)Cc1ccc(Cl)cc1)NC1CCCC1 | -2% | -7% | 0%
O=C(COC(=O)c1ccc(O)cc1)Nc1cc(C(F)(F)F)ccc1Cl | 0% | -16% | -2%
O=C(COc1ccccc1F)NNC(=O)c1cc(Br)ccc1Cl | 6% | 16% | -8%
CCOC(=O)[C@H]1[C@H]2COc3ccc(Cl)cc3[C@@H]2N2C(=O)CN(C)C(=O)[C@@]12C | ? | -3% | 2%
COc1ccc2c([N+](=O)[O-])c(Cl)[nH]c2c1 | -1% | 11% | -8%
COc1ccc([C@H]2CC(=O)C=C(c3cccc(Br)c3)C2)cc1 | 3% | -16% | 0%
O=C(NCCCN1CCCCCC1)C1CCCN(S(=O)(=O)c2cccc3nsnc23)C1 (stereo not drawn) | -1% | -3% | -12%
O=C(COc1ccccc1)Nc1ccccc1Cl | 1% | 43%[activator] | -22%
COc1ccccc1C(CNC(=O)c1ccco1)N1CCCC1 (stereo not drawn) | -2% | 15% | -4%
Cc1nn(C)c(C)c1NC(=O)COc1ccc(Cl)cc1 | -1% | ? | -19%
COc1ccc(NC(=O)COC(=O)CCc2ccc(S(=O)(=O)N3CCOCC3)cc2)c(OC)c1 | 3% | -28% | -15%
CSCCC(NC(=O)c1ccccc1)C(=O)NCC(C)(C)N1CCOCC1 (stereo not drawn) | -3% | 0% | -11%
CC(C)(C)N1C(=O)[C@H]2[C@@H](c3ccc(Br)cc3)N3C(=O)N(c4cccc(Cl)c4)C(=O)[C@@]3(Cc3ccccc3)[C@H]2C1=O | -1% | -18% | -20%
Cc1nn(-c2ccccc2)c(C)c1/C=C/C(=O)OCC(=O)Nc1ccc(S(N)(=O)=O)cc1 | 1% | -29% | 2%
COc1cccc(-n2c(SCC(=O)NC3CCS(=O)(=O)C3)nc3ccccc3c2=O)c1 (stereo not drawn) | 2% | -6% | -10%
COc1ccc2nc(-c3ccccc3)cc(C(=O)OCC(=O)N3CC(C)OC(C)C3)c2c1 (stereo not drawn) | -7% | -31% | 11%
C[C@H](O)Cc1cn(-c2cc3cc(C#Cc4ccsc4)ccc3oc2=O)nn1 | 2% | -6% | 0%
O=C(NCc1cccs1)C(=O)c1c[nH]c2ccccc12 | -6% | 49%[activator] | -5%
CC[C@]12c3[nH]c4cc(-c5ccco5)ccc4c3CCN1C(=O)[C@@H](CC(=O)NCC13CC4CC(CC(C4)C1)C3)C[C@@H]2C(=O)N1CCN(C(=O)C2CC2)CC1 | -16% | ? | 4%
O=S(=O)(Nc1cc(Cl)ccc1N1CCOCC1)c1ccccc1Cl | 1% | -4% | 4%
O=c1ccc2ccc(O[C@@H]3O[C@H](CO[C@@H]4OC[C@](O)(CO)[C@H]4O)[C@@H](O)[C@H](O)[C@H]3O)cc2o1 | -3% | -16% | 18%
CC(OC(=O)c1cccc(-n2cnnn2)c1)C(=O)NC1(C#N)CCCCC1 (stereo not drawn) | -6% | -14% | 14%
CCOC(=O)c1c(C)[nH]c(C(=O)OCC(=O)N2CCN(S(=O)(=O)c3ccc(C)cc3C)CC2)c1C | 10%[6.58 µM] | ? | -2%

# New compounds follow
Molecule | SARS PLpro yeast | StopGo reporter | RE007 growth inh
Brc1ccc(CN2CC[C@H]3C=CCc4cccc(c43)C2)cc1 | 0% | -21% | -27%
O=C(NC1CC1)C1CCN(S(=O)(=O)c2cc([N+](=O)[O-])ccc2Cl)CC1 | 2% | ? | 0%
Cn1c(N)c(C(=O)COC(=O)Cc2cccc(C(F)(F)F)c2)c(=O)n(C)c1=O | 3% | -5% | -14%
CCOc1ccc(C(=O)COC(=O)CNC(=O)C2CCCCC2)cc1 | 1% | 9% | 14%
CCOC(=O)C1CCCN(C(=O)COc2ccc(N(C)S(=O)(=O)c3ccc(F)cc3)cc2)C1 (stereo not drawn) | 1% | -9% | 1%
Cc1cccc(NC(=O)CSCC(=O)N(C)Cc2ccc(Cl)c(Cl)c2)c1 | 5% | -18% | 0%
CSc1ncccc1C(=O)OCC(=O)c1ccc(Br)s1 | 0% | 16% | -5%
Cc1ccc(C)c(NC(=O)CS(=O)(=O)c2cccc3nsnc23)c1 | 2% | -13% | 6%
O=C(Nc1cc(C(F)(F)F)ccc1N1CCOCC1)C1CC1 | 1% | -12% | -12%
COc1ccc(Cl)cc1NC(=O)CNc1ccccc1N1CCOCC1 | -1% | -10% | 10%
CC(C(=O)N1CCN(C(=O)c2ccco2)CC1)N1C(=O)NC2(CCCCC2C)C1=O (stereo not drawn) | 2% | -7% | 13%
CC(C)=CCC/C(C)=C/CNC(=O)CC1C[C@H](C(=O)N2CCCCC2)[C@@]2(C)c3[nH]c4ccccc4c3CCN2C1=O (stereo partly drawn) | -1% | -17% | 5%
CC1(C)C2CCC(C2)C1(C)NC(=O)CNC1CCCCC1 (stereo not drawn) | 0% | -5% | -4%
O=C(CSc1ccc2nnc(CCNC(=O)c3ccccc3)n2n1)Nc1ccccc1F | 1% | -6% | 5%
Cc1ccc(-n2c(C)nnc2SCC(=O)N(C)C2CCS(=O)(=O)C2)cc1 (stereo not drawn) | 5% | -19% | -8%
CSc1nc2nc3c(cc2c(=O)[nH]1)C(O)Oc1ccc(C)cc1-3 (stereo not drawn) | -2% | -24% | -15%

# Source: PubChem BioAssay

# This is a subset; the hit share may differ from the screen's.
